NS1 function inh: blocks influenza NS1 protein function; S. cerevisiae slowed by influenza A NS1, growth recovery by OD600; Potency, µM (highest dose often 46.1 µM), inactives show at the highest dose activity, positive = more growth; actives 0.4% (n = 270,000); note: actives are rising curves; nearly all actives have a fitted effect of over 50% in size
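Growth recovery, yeast-based: influenza A NS1 expressed in S. cerevisiae causes slow growth, and suppressors are detected by OD600. The parent strain without NS1 is used as positive control.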
RE007 growth inh: less growth of the S. pombe RE007 Vpr strain; AID 651644; actives 0.21% (n = 360,000); Potency, µM (doses to about 92.2 µM), inactives show top-dose activity change, negative = less growth; S. pombe RE007 Vpr strain, BacTiter-Glo ATP luminescence, 24 h; control for the full effect not named in the record; active = well fitted falling curve with a large enough effect; inconclusive = small, poorly fitted or top-dose-only effect; inactive = no such curve, though single readings can be large or run the other way;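 note: % is set by controls: 0 for no effect and ±100 for the full control effect; nearly all actives have a fitted effect of over 50% in size; the assay follows cell death caused by Vpr and the record does not say whether a fall means rescue or toxicity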
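Fission yeast RE007 carrying one integrated HIV-1 vpr copy, seeded at OD 0.01 in PMG+AL medium with 23 nL pinned compound. Grown 24 h at 30 degrees; viability read by BacTiter-Glo luminescence after 5 min.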
Cruzain inh Det: blocks cruzain activity in presence of Triton detergent; AID 1478; Potency, µM, inactives show max response, negative = inhibition, most hits filed as inhibitors; P25779; actives 0.43% (n = 200,000); purified cruzain, Z-FR-AMC fluorescence, 0.01% Triton; active = well fitted curve in the direction sought with a large enough effect; inconclusive = small, poorly fitted or top-dose-only effect, or another doubt; inactive = no such curve, though single readings can be large; an effect the other way counts as inactive or inconclusive;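 note: plate controls were neutral wells for no effect and buffer without enzyme for full effect; nearly all actives have a fitted effect of over 40% in size; top concentration of the series not given in the record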
Target sequence (P25779 123-467 limits assumed): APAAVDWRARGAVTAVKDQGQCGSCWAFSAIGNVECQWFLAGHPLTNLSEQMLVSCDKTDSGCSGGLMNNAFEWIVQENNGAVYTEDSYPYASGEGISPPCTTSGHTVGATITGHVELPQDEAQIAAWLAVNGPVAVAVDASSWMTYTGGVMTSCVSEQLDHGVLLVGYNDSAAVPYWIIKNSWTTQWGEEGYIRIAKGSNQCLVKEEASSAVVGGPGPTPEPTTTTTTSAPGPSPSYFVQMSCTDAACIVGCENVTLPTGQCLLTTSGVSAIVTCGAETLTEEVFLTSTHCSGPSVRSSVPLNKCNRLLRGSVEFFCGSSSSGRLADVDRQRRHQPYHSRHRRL
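Sodium acetate buffer (100 mM, pH 5.5) containing 5 mM DTT and 0.01% Triton X-100 hosted 1.5 nM cruzain and test compound for 15 min at room temperature. Cleavage of 2 uM Z-FR-AMC was then tracked by fluorescence.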
SARS PLP yeast: SARS-CoV PLP inhibition in yeast; S. cerevisiae expressing SARS-CoV PLpro, growth rescue; control for the full effect not named in the record; Potency, µM (series often up to 32.9 µM), inactives show at the top dose activity, positive = growth rescue; actives 0.19% (n = 330,000); AID 485353; note: 0% is about no effect; nearly all actives have a fitted effect of over 55% in size; growth read by luminescence after 48 h
LASV entry inh: inhibitors of Lassa virus binding or cell entry. Potency, µM (series often up to 37.9 µM), for inactives: at the highest dose activity change, negative = inhibition, most hits filed as inhibitors. AID 540256. Lassa virus pseudotype entry inhibition, cell reporter; control for the full effect not named in the record. actives 1.2% (n = 300,000); active means well fitted inhibition curve with a large enough effect; inconclusive means small, poorly fitted or top-dose-only effect, or effect the other way; inactive means flat fitted curve, though single readings scatter; tested in HEK293 cells; note: % is set by controls: 0 for no effect and ±100 for the full control effect; nearly all actives have a fitted effect of over 50% in size; luciferase read-out
Marburg entry inh: blocks Marburg virus binding to or entry into cells. AID 540276. Potency, µM (top dose mostly 37.8 µM), for inactives: at the top dose activity change, negative = inhibition, most hits filed as inhibitors. actives 1.8% (n = 300,000). Marburg virus pseudotyped entry inhibition, cell reporter; control for the full effect not named in the record; about a third of the inactives were read at about 46 µM; active = well fitted inhibition curve with a large enough effect; inconclusive = small, poorly fitted or top-dose-only effect, or effect the other way; inactive = flat fitted curve, though single readings scatter; tested in HEK293 cells; about a fifth of its hits are not listed in these tables; note: % is set by controls: 0 for no effect and ±100 for the full control effect; luciferase read-out
Cruzain noTriton: blocks cruzain activity in detergent-free assay; P25779; purified cruzain, Z-FR-AMC fluorescence, no detergent; Potency, µM, inactives show max response, negative = inhibition, usual class: inhibitors; actives 2.3% (n = 200,000); AID 1476; active = well fitted curve in the direction sought with a large enough effect; inconclusive = small, poorly fitted or top-dose-only effect, or another doubt; inactive = no such curve, though single readings can be large; an effect the other way counts as inactive or inconclusive;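 note: plate controls were enzyme without inhibitor for no effect and buffer without enzyme for full effect; nearly all actives have a fitted effect of over 40% in size; top concentration of the series not given in the record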
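Detergent-free condition (0.00005% Triton X-100) in acetate buffer pH 5.5 with DTT. 1.5 nM enzyme and compound were pre-mixed 15 min, then 2 uM Z-FR-AMC substrate added; reaction progress from fluorescence change between first and third reads (60 s).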
StopGo reporter: FMDV 2A StopGo reporter, luciferase signal; human cells with a luciferase reporter of 2A StopGo recoding; control for the full effect not named in the record; Potency, µM (titrated, usually from 57.9 µM), inactives show top-dose signal change, negative = less light; actives 1.2% (n = 410,000); AID 1159524; active = well fitted falling curve with a large enough effect; inconclusive = small, poorly fitted or top-dose-only effect; inactive = no such curve, though single readings can be large or run the other way; tested in HEK293T cells; note: % is set by controls: 0 for no effect and ±100 for the full control effect; nearly all actives have a fitted effect of over 45% in size; luciferase light after 4 h
An asterisk follows results filed as active; & = joins results of further samples; [ ] = dose if it differs, or a comment. Unless noted, calls come from the whole dose curve; as a rule, active means well fitted rising curve with a large enough effect; inconclusive means small, poorly fitted or top-dose-only effect; inactive means no such curve, though single readings can be large or run the other way. Potency is the fitted concentration of half-maximal effect.

What do the screens show for `COc1ccc2c(c1)C(c1ccc(C)o1)=NNC(c1ccccc1)=N2`?
NS1 function inh: 8.7%; RE007 growth inh: 0.1%; SARS PLP yeast: -0.1%; StopGo reporter: 15.0%

What do the screens show for `Cc1ccc(S(=O)(=O)c2cnc(-c3ccccc3)nc2Oc2ccccc2)cc1`?
NS1 function inh: 5.9%; Cruzain inh Det: 2.6%; SARS PLP yeast: 1.3%; Marburg entry inh: 0.0%; Cruzain noTriton: -1.8%

Results for CNC(=O)C1CC(=O)N(c2ccc(OCC(=O)Nc3ccc(F)cc3)cc2)C1 (stereo not given) ?
RE007 growth inh: 10.0%; LASV entry inh: -7.1%; Marburg entry inh: 14.0%[46.1 µM]; StopGo reporter: -7.5%

How did CC(C)(C)NNC(=S)Nc1cccc(F)c1 do in these assays?
NS1 function inh: -4.4%; RE007 growth inh: -1.9%; SARS PLP yeast: 0.5%; LASV entry inh: -14.1%; Marburg entry inh: 6.3%[14.2 µM]; StopGo reporter: 41.0%[activator]

Results for CC(C)[C@H](NC(=O)OCc1ccccc1)C(=O)NCc1ccccc1 ?
NS1 function inh: 6.2%; RE007 growth inh: 14.0%; Cruzain inh Det: -3.2%; SARS PLP yeast: -3.4%; LASV entry inh: -28.1%; Marburg entry inh: 19.3%; Cruzain noTriton: -9.7%; StopGo reporter: -24.2%

Results for C#Cc1ccc([C@H]2C=C(C(=O)N3CCOCC3)O[C@@H](OCc3ccc(CO)cc3)C2)cc1 ?
NS1 function inh: -0.9%; RE007 growth inh: 7.1%; SARS PLP yeast: -2.0%; StopGo reporter: -7.9%

What do the screens show for `CCCCN(C)C(=O)c1ccc2c(c1)N(CC)C(=O)c1ccccc1S2(=O)=O`?
NS1 function inh: -4.6%; RE007 growth inh: -0.2%; Cruzain inh Det: 3.1%; SARS PLP yeast: 9.1%; Marburg entry inh: 5.9%; Cruzain noTriton: -0.8%; StopGo reporter: 0.0%

How did O=c1c2ccccc2nc(N/N=C/c2ccc(O)cc2)n1O do in these assays?
NS1 function inh: -9.4%; RE007 growth inh: -29.9%; Cruzain inh Det: -2.8%; SARS PLP yeast: -1.3%; LASV entry inh: -1.1%; Marburg entry inh: -20.5%; Cruzain noTriton: -5.6%; StopGo reporter: -2.8%

How did COc1ccc(S(=O)(=O)N(C)CC(=O)NCc2ccco2)cc1 do in these assays?
NS1 function inh: 14.5%; RE007 growth inh: 11.3%; Cruzain inh Det: 0.3%; SARS PLP yeast: 2.1%; LASV entry inh: 4.3%; Marburg entry inh: -2.2%; Cruzain noTriton: -5.9%; StopGo reporter: 6.9%

What do the screens show for `CCC(=O)N1CCc2cc(S(=O)(=O)CCC(=O)N(C)c3ccc(OC)cc3OC)ccc21`?
NS1 function inh: -0.9%; RE007 growth inh: -6.2%; SARS PLP yeast: 0.4%; LASV entry inh: inconclusive; Marburg entry inh: -19.9%[46.1 µM]; StopGo reporter: -8.8%

What do the screens show for `CCN1C(N(C)CCc2cccs2)=N[C@@H](c2ccccc2)C(C(=O)OC)=C1C`?
NS1 function inh: -4.4%&10.9%; RE007 growth inh: 13.1%; SARS PLP yeast: 8.7%&-3.3%; StopGo reporter: -20.7%

Results for CCOc1ccc(/C=N/NC(=O)c2nnn(-c3nonc3N)c2-c2ccc(OCC)cc2)cc1 ?
NS1 function inh: 12.4%; RE007 growth inh: -8.5%; Cruzain inh Det: -9.0%; SARS PLP yeast: -2.8%; LASV entry inh: -24.8%; Marburg entry inh: 2.2%; Cruzain noTriton: -9.2%; StopGo reporter: -6.2%

Results for Cn1c(O)c(C(=Nc2ccccc2)SCc2ccccc2Cl)c(=O)n(C)c1=O ?
NS1 function inh: -52.7%; RE007 growth inh: -19.9%; SARS PLP yeast: 1.3%; LASV entry inh: -16.6%; Marburg entry inh: inconclusive; StopGo reporter: inconclusive

What do the screens show for `COc1cccc(-c2nn(C)c3sc(C(=O)NCc4ccc(OC)cc4OC)cc23)c1`?
Cruzain inh Det: -0.6%; LASV entry inh: inconclusive; Marburg entry inh: -2.2%[46.1 µM]; Cruzain noTriton: inconclusive; StopGo reporter: -16.6%

How did CCN(CC)S(=O)(=O)c1ccc(C(=O)NCCSc2c(-c3ccc(OC)cc3)[nH]c3ccccc23)cc1 do in these assays?
Cruzain inh Det: 2.2%; LASV entry inh: inconclusive; Marburg entry inh: inconclusive; Cruzain noTriton: -14.1%; StopGo reporter: -3.0%

How did Cc1ccc(S(=O)(=O)N2CCN(C(=O)c3ccccn3)CC2)cc1 do in these assays?
RE007 growth inh: -5.4%; SARS PLP yeast: 0.6%; LASV entry inh: -0.4%; Marburg entry inh: inconclusive; StopGo reporter: -9.2%

How did CCC(C)(C)N(C(=O)CCC(=O)Nc1cc(C)on1)C(C(=O)NC(C)(C)C)c1ccc(OC)cc1 (stereo not given) do in these assays?
NS1 function inh: -4.9%; RE007 growth inh: 4.1%; SARS PLP yeast: -1.9%; LASV entry inh: -0.2%[46.1 µM]; Marburg entry inh: -27.4%[46.1 µM]; StopGo reporter: 9.1%

Results for COc1ccc(S(=O)(=O)Nc2ccccc2OC)cc1NC(=O)CC1CC2CCC1C2 (stereo not given) ?
NS1 function inh: 16.1%; Cruzain inh Det: -0.8%; SARS PLP yeast: 6.8%; LASV entry inh: inconclusive; Marburg entry inh: inconclusive; Cruzain noTriton: inconclusive; StopGo reporter: -10.4%

Results for CCOC(=O)CN1C(=O)c2cccnc2Oc2ccccc21 ?
Cruzain inh Det: -0.1%; LASV entry inh: 19.6%[46.1 µM]; Marburg entry inh: 9.0%[46.1 µM]; Cruzain noTriton: -1.3%; StopGo reporter: -24.7%

How did CC(C)(C)c1ccc(/C=N/NC(=O)C2CCCC2)cc1 do in these assays?
NS1 function inh: -38.7%; RE007 growth inh: -2.0%; SARS PLP yeast: -9.5%; StopGo reporter: 39.5%[activator]

How did COc1ccc(-c2nnc(SC(C)C(=O)NNC(=O)c3ccc(C)cc3)o2)cc1 (stereo not given) do in these assays?
NS1 function inh: -4.1%; RE007 growth inh: 11.4%; Cruzain inh Det: -1.9%; SARS PLP yeast: 21.9%; LASV entry inh: 6.3%; Marburg entry inh: -18.2%; Cruzain noTriton: 21.6%; StopGo reporter: -1.7%

What do the screens show for `CCOc1ccccc1CNC(=O)c1cc2c(=O)n(Cc3ccccc3)ccc2nc1C`?
Cruzain inh Det: 2.0%; LASV entry inh: inconclusive; Cruzain noTriton: inconclusive; StopGo reporter: inconclusive

Results for COc1ccccc1NC(=O)CSc1nnc(NC(=O)NC2CCCCC2)s1 ?
Cruzain inh Det: -3.8%; LASV entry inh: 9.8%[46.1 µM]; Cruzain noTriton: 3.7%; StopGo reporter: 19.3%

What do the screens show for `CCNS(=O)(=O)c1ccc(CCC(=O)N2CCCC2)cc1`?
NS1 function inh: 21.2%; RE007 growth inh: -21.0%; SARS PLP yeast: -0.9%; LASV entry inh: inconclusive; Marburg entry inh: 26.4%; StopGo reporter: -6.9%

How did Cc1sc(NC(=O)c2cccs2)c(C(=O)OC(C)C)c1C do in these assays?
NS1 function inh: -2.5%; RE007 growth inh: 2.6%; Cruzain inh Det: -13.6%; SARS PLP yeast: 15.6%; LASV entry inh: -19.5%; Marburg entry inh: inconclusive; Cruzain noTriton: -8.0%; StopGo reporter: -17.3%

Results for CCOC(=O)c1c(NC(=O)c2ccc(N3C(=O)[C@@H]4[C@H](C3=O)[C@H]3C=C[C@@H]4C3)cc2)sc2c1CC(C)CC2 (stereo not given in full) ?
NS1 function inh: 14.0%; RE007 growth inh: -11.7%; Cruzain inh Det: -3.6%; SARS PLP yeast: -3.8%; LASV entry inh: 5.6%; Marburg entry inh: 13.2%; Cruzain noTriton: -4.6%; StopGo reporter: -21.3%

What do the screens show for `CCCc1cc(N2CCN(c3ccccn3)CC2)n2nc(C)c(-c3ccccc3)c2n1`?
NS1 function inh: -9.8%; RE007 growth inh: -5.5%; Cruzain inh Det: -11.0%; SARS PLP yeast: -4.8%; LASV entry inh: 3.1%; Marburg entry inh: inconclusive; Cruzain noTriton: 8.3%; StopGo reporter: 12.0%

What do the screens show for `CCCCc1nc(N2CCOCC2)c(C#N)c2c1COC(C)(C)C2`?
NS1 function inh: -42.6%; RE007 growth inh: -7.3%; Cruzain inh Det: -0.1%; SARS PLP yeast: -7.2%; LASV entry inh: -0.9%; Marburg entry inh: -26.8%; Cruzain noTriton: 0.0%; StopGo reporter: 0.0%

How did O=C(NCCN1C(=O)S/C(=C\c2cccs2)C1=O)c1ccco1 do in these assays?
NS1 function inh: -0.5%; RE007 growth inh: 0.5%; SARS PLP yeast: 1.7%; LASV entry inh: 14.4%; Marburg entry inh: inconclusive; StopGo reporter: 7.7%

How did O=C(C1CCC1)N1CCN(c2cccc(C(F)(F)F)c2)CC1 do in these assays?
NS1 function inh: -26.3%; RE007 growth inh: -12.4%; SARS PLP yeast: -0.7%; LASV entry inh: inconclusive; Marburg entry inh: inconclusive; StopGo reporter: -13.8%

Results for Cc1ccc(F)cc1NC(=O)Cc1ncc(C(F)(F)F)cc1Cl ?
NS1 function inh: 14.0%; RE007 growth inh: 6.0%; Cruzain inh Det: 6.5%; SARS PLP yeast: -1.2%; LASV entry inh: 9.9%; Marburg entry inh: inconclusive; Cruzain noTriton: -0.6%; StopGo reporter: 4.8%

What do the screens show for `COc1ccccc1CNC(=O)COC(=O)c1n[nH]c2ccccc12`?
NS1 function inh: -4.0%; RE007 growth inh: -9.5%; Cruzain inh Det: -23.3%; SARS PLP yeast: 3.8%; LASV entry inh: inconclusive; Marburg entry inh: -20.4%; Cruzain noTriton: -3.1%; StopGo reporter: inconclusive

What do the screens show for `O=C(CCC(=O)N1CCCCC1)Nc1ccc(Cl)c(Cl)c1`?
NS1 function inh: -5.3%; RE007 growth inh: 13.9%; SARS PLP yeast: -5.3%; LASV entry inh: 4.5%; Marburg entry inh: 20.6%; StopGo reporter: 13.3%
